Vaccinia Venus = vaccinia inhibition (Venus reporter) | Potency, µM (doses to about 36.5 µM), without a hit: at the highest dose activity change, negative = inhibition, actives largely listed as inhibitors | actives 0.46% (n = 330,000) | AID 720580 | Vaccinia virus Venus reporter expression, fluorescence; active means well fitted inhibition curve with a large enough effect; inconclusive means small, poorly fitted or top-dose-only effect; inactive means no such curve, though single readings can be large or run the other way; tested in A549 cells; note: nearly all actives have a fitted effect of over 30% in size; inactives centre near -10
VACV mCherry inh = vaccinia inhibition (mCherry reporter); Vaccinia virus mCherry reporter infection, fluorescence; about a quarter of the inactives have no number; Potency, µM (top dose mostly 36.5 µM), inactives show at the top dose activity change, negative = inhibition, usual class: inhibitors; actives 0.63% (n = 310,000); active = well fitted inhibition curve with a large enough effect; inconclusive = small, poorly fitted or top-dose-only effect; inactive = no such curve, though single readings can be large or run the other way; tested in A549 cells; note: nearly all actives have a fitted effect of over 35% in size; inactives centre near -10
The depositor's hits bear a star; i = inactive; ? = inconclusive; nt = no result given; & = joins results of further samples. % is set by controls: 0 for no effect and ±100 for the full control effect; potency is the fitted concentration of half-maximal effect. Rows are unselected; overall some 0.82% were active at least once.

Order of results – Vaccinia Venus, VACV mCherry inh
C#CCOCCOCCOCCNc1nc(N2CCN(C(=O)Cn3cc(CCCN=C(N)N)nn3)CC2)nc(N2CCN(C(=O)[C@H]([C@@H](C)O)n3cc(CCCCN)nn3)CC2)n1
 : -8.8%, i
COc1cccc(C(=O)Nc2nc3nc(-c4ccccc4)cc(=O)n3[nH]2)c1
 : -6.8%, 3.6%
COc1ccc(N2CCN(C(=S)Nc3ccccc3OC)CC2)cc1
 : -22.3%, i
Cc1cc(=O)[nH]c(N2CCOCC2)n1
 : -11.4%, -12.0%
O=C(CSc1ccc(Br)cc1)N1CCOCC1
 : -11.4%, i
O=C(Nc1ccc(N2CCOCC2)cc1)c1cc2ccccc2o1
 : -31.2%, nt
Cc1cc(=O)n2nc(N3CCCC3C(=O)NCc3ccccn3)sc2n1 (stereo not given)
 : 4.3%, -15.0%
O=C(COC(=O)c1nc(-c2ccccc2)n(-c2cccc(C(F)(F)F)c2)n1)NCc1cccs1
 : -13.1%, -16.9%
CN1C(=O)C(C)(C)c2cc(S(=O)(=O)N3CCC(C(=O)NCc4ccc(F)cc4)CC3)ccc21
 : -10.7%, -4.6%
COc1ccccc1CNC(=O)C1CCCN(c2nn3cc(-c4ccc(F)cc4)nc3s2)C1 (stereo not given)
 : -18.3%, -19.5%
COc1ccc(CNC(=O)COc2cc(O)c3c(c2)OC(C)(C)CC3=O)cc1
 : -5.7%, -1.2%
CCCCCCCCN1C(=O)[C@H](CC(=O)N2CCN(C(=O)C3CC3)CC2)C[C@@]2(C(=O)OC)CCCCC=C12
 : -17.0%, -15.1%
O=C(CN1C(=O)C2CC=CCC2C1=O)Nc1nccs1 (stereo not given)
 : -14.4%, i
CCOC(=O)C1CCN(S(=O)(=O)c2ccc(OC)c(Cl)c2)CC1
 : -7.3%, i
COc1ccc(CN(C)c2ccc(-c3nc(-c4ccccc4)no3)cc2[N+](=O)[O-])cc1
 : -5.0%, -5.4%

In the list so far, these have an NH in an aromatic ring:
Order of results – Vaccinia Venus, VACV mCherry inh
COc1cccc(C(=O)Nc2nc3nc(-c4ccccc4)cc(=O)n3[nH]2)c1
 : -6.8%, 3.6%
Cc1cc(=O)[nH]c(N2CCOCC2)n1
 : -11.4%, -12.0%

Later entries
Order of results – Vaccinia Venus, VACV mCherry inh
O=c1c2sc3ccccc3c2n(Cc2cccc(C(F)(F)F)c2)c(=O)n1Cc1ccco1
 : -4.0%, -3.0%
CS(=O)(=O)N(CC(=O)NCCSc1ccccc1)c1ccc2c(c1)OCO2
 : -11.7%, -2.2%
COc1ccc(C2c3c(-c4ccccc4)n[nH]c3C(=O)N2c2ccc(C(=O)O)cc2)c(OC)c1 (stereo not given)
 : -1.6%, -5.1%
O=C(C1CCC(CNc2c(N3CCCCC3)c(=O)c2=O)CC1)N1CCc2ccccc2C1 (stereo not given)
 : ?, -11.3%
CCOC(=O)/C(C#N)=C/c1cn(CCC(=O)O)nc1-c1ccc(Cl)cc1
 : -1.2%, -13.7%
CC(C)Oc1ccc(S(=O)(=O)N2CCOCC2)cc1NC(=O)c1ccc(Cl)c(S(=O)(=O)N2CCOCC2)c1
 : -10.2%, -16.3%
CCc1ccc(-c2nc(SCC(=O)NC3CCS(=O)(=O)C3)n[nH]2)cc1 (stereo not given)
 : -17.3%, -22.5%
COc1ccccc1C(=O)NC1(C(F)(F)F)C(=O)Nc2c1c(=O)[nH]c(=O)n2-c1ccccc1 (stereo not given)
 : -2.2%, -8.5%
COc1ccccc1C(=O)C1CCCN(C(=O)CCC(=O)c2ccccc2)C1 (stereo not given)
 : -18.6%, i
CCCS(=O)(=O)c1nc(S(=O)(=O)c2ccc(C)cc2)c(NCc2ccccc2)s1
 : -10.0%, i
CC(Oc1ccc(-c2nccc(-c3ccccn3)n2)cc1)C(=O)NN (stereo not given)
 : -9.5%, -14.1%
O=C(c1ccc2c(c1)OCO2)C1CCCN(C(=O)C2CCOCC2)C1 (stereo not given)
 : -0.8%, i
Oc1ccc(CCN2CCCCC2)cc1
 : -11.0%, -12.1%
C[C@H](CO)N1C[C@H](C)[C@@H](CN(C)C(=O)Nc2ccccc2)Oc2c(NC(=O)c3ccncc3)cccc2C1=O
 : -2.1%, i
CCOc1ccc(S(=O)(=O)N2CCN(C(=O)CCC(=O)N3CCOCC3)CC2)cc1
 : -19.0%, -26.6%
CCOC(=O)Cn1c(=O)n(CC2CCCO2)c2nc(-c3ccccc3Cl)nc(C(N)=O)c21 (stereo not given)
 : 1.3%, -5.2%
N#CC1c2ccccc2C=CN1C(=O)c1ccccc1 (stereo not given)
 : -8.5%, -15.7%
c1ccc(OCCOCCOc2ccccc2)cc1
 : -3.6%, i
CC(=O)Nc1ccc(NC(=O)CSc2nnc(-c3cc4ccccc4o3)n2C)cc1
 : -8.5%, -17.3%
CCc1ccc2oc(-c3cccc(NC(=O)c4cc5ccccc5o4)c3)nc2c1
 : -1.4%, -8.0%
CC1CCN(C(C(=O)O)c2ccccc2)CC1 (stereo not given)
 : -11.0%, i
COc1ccc(-c2cn3c(n2)sc2cc(C(=O)Nc4cccc(SC)c4)ccc23)cc1
 : -8.5%, -9.8%
O=C(O)c1ccc(NC(=O)c2ccccc2NC(=O)c2cccc(Br)c2)cc1
 : -15.6%, -9.7%
CC(=O)N/C(=N\c1nc(C)cc(C)n1)Nc1ccc(Cl)cc1Cl
 : -6.5%, i
CC(C)CC(=O)Nc1ccc(C(=O)COC(=O)CN2C(=O)NC3(CCCCC3C)C2=O)cc1 (stereo not given)
 : -5.9%, -3.2%
CCCc1n[nH]c2c1/C(=N/O)CC(c1ccccc1)C2 (stereo not given)
 : -16.2%, -23.2%
CSCCC(NC(=O)c1ccc(Cl)cc1)C(=O)OCC(=O)Nc1cc(Cl)ccc1C#N (stereo not given)
 : 3.8%, -8.5%
CCOc1ccc(NC(=O)CSc2nc(=O)n(Cc3cccnc3)c3c2CCC3)cc1
 : -14.5%, -18.5%
CCc1ccc(NC(=O)c2cc3c(COC(C)=O)cnc(C)c3oc2=O)cc1
 : -2.3%, -8.1%
CCC(C)(C)C1CCC2(CC1)NC(=O)N(CC(=O)N(C)Cc1ccc(OC(F)F)cc1)C2=O (stereo not given)
 : -5.6%, -23.2%
CCCNC(=O)COc1ccc(S(=O)(=O)Nc2ccc(C)cc2)cc1
 : -16.0%, -4.9%
O=C(NCC1CCCO1)C(=O)N/N=C/c1cc(Cl)ccc1O (stereo not given)
 : -13.5%, ?
O=C(COC(=O)c1ncc(Cl)c(Cl)c1Cl)NCCc1ccccc1
 : -15.9%, -13.3%
Cc1cccc(Oc2ccc(NC(=O)C3CC=CCC3C(=O)O)cc2)c1 (stereo not given)
 : 11.1%, -0.1%
O=C(NCc1c(Cl)cccc1Oc1ccccc1)c1ccccc1
 : -10.7%, -6.6%
CCn1cc(Cl)c(C(=O)NNC(=O)CCn2cc([N+](=O)[O-])cn2)n1
 : -6.7%, -3.2%
COc1cccc(-c2nn(-c3ccccc3)cc2CN(C)Cc2c(C)nc3ccccn23)c1
 : -27.5%, -19.1%
CC(=O)c1cnc2nc(SCc3ccccc3C)nn2c1C
 : -6.2%, -2.4%
COc1ccc(C)cc1S(=O)(=O)NCCN1CCOCC1
 : -14.0%, -14.5%
N/C(=N\OC(=O)c1ccco1)c1ccccn1
 : -4.6%, -14.2%
CCOC(=O)N1CCC(NC(=O)c2cc(C(=O)NC3CCCC3)ccc2CO)CC1
 : -4.0%, i
Cc1cc(C)nc(/N=C(\NC(=O)C(C)(C)C)Nc2ccc(F)cc2)n1
 : -18.9%, -12.2%
COc1cc(NC(=O)C2=C(N3CCOCC3)/C(=C/c3ccc(Cl)cc3)CC2)cc(OC)c1OC
 : -5.8%, i
O=[N+]([O-])c1ccccc1S(=O)(=O)Nc1cccc(-c2ccc3nncn3n2)c1
 : -4.7%, i
c1csc(CN2CCOCC2)c1
 : -24.9%, -7.6%

One compound at a time (already shown). Order of screens: Vaccinia Venus, VACV mCherry inh
COc1ccccc1C(=O)C1CCCN(C(=O)CCC(=O)c2ccccc2)C1 (stereo not given) is entered as -18.6%, i
O=C(CN1C(=O)C2CC=CCC2C1=O)Nc1nccs1 (stereo not given) is entered as -14.4%, i

New compounds follow:
Order of results – Vaccinia Venus, VACV mCherry inh
CC(=O)c1sc(NC(=O)COc2ccccc2)nc1C
 : -4.2%, -5.6%
CCCCN1C(=O)C(CC(=O)NCCCCc2ccccc2)CC(C(=O)N2CCCCCC2)=C1C (stereo not given)
 : -8.4%, -20.2%
CCCc1ccc(C(O)c2ncc(-c3cccc(C)c3)[nH]2)cc1 (stereo not given)
 : -17.9%, i
C#CCOCCOCCOCCNc1nc(N2CCN(C(=O)CCCCCCCCCCNC(=O)[C@H](CCCCN)n3cc(CCO)nn3)CC2)nc(N2CCN(C(=O)CCCCCCCCCCNC(=O)[C@@H]([C@H](C)O)n3cc(C)nn3)CC2)n1
 : -23.2%, -1.0%
CCOc1ccc(N2CC(C(=O)Nc3ccccc3N3CCOCC3)CC2=O)cc1 (stereo not given)
 : -12.5%, -8.9%
CC(C)C(c1nnnn1Cc1ccc(F)cc1)N1CCN(c2ccc(O)cc2)CC1 (stereo not given)
 : 3.6%, ?
CCOc1ccc(N(CC(=O)Nc2ccc(OC)cc2OC)S(=O)(=O)c2c(C)[nH]c(=O)[nH]c2=O)cc1
 : -17.8%, -2.2%
CCSc1cc(Cl)nc(N)n1
 : -8.6%, -10.7%
Cc1ccc(C)c(CN2C(=O)c3ccccc3Sc3ccc(C(=O)NCc4ccc5c(c4)OCO5)cc32)c1
 : -17.6%, -5.9%
COc1ccccc1/C=C/c1nc(C#N)c(N2CCCCC2)o1
 : -8.9%, -5.4%
CC1CCC(NC(=O)c2ccc3c(c2)N(Cc2ccccc2F)C(=O)c2ccccc2S3)CC1 (stereo not given)
 : -7.5%, -20.9%
CC(C)c1ccc(N(CC(=O)NC2CCCC2)C(=O)CCC(=O)Nc2ccccn2)cc1
 : -7.4%, -4.1%
CCOC(=O)C1(C#N)C(=O)CSC1=Nc1ccccc1Cl (stereo not given)
 : 26.4%, -5.1%
COc1ccc(C2(CCN)CC(C)N(C)CC2C)cc1 (stereo not given)
 : ?, nt
COCCNC(=O)C(c1ccccc1)N(C(=O)Cn1nnc2ccccc21)c1cccnc1 (stereo not given)
 : -1.8%, -1.5%
O=C(c1ccco1)N1CCN(Cc2nnc(-c3cccc(Br)c3)o2)CC1
 : -13.9%, -2.6%
COc1ccc(CNC(=O)CCCNC(=O)c2ccc(Cl)cc2)cc1OC
 : -18.1%, -14.2%
CC(C)N1CCc2c(sc(NC(=O)c3ccc(S(=O)(=O)N(C)C4CCCCC4)cc3)c2C(N)=O)C1
 : -20.4%, -23.7%
Cc1c(C(=O)N2CCN(S(=O)(=O)c3ccccc3)CC2)oc2ccccc12
 : -15.0%, -0.7%
Cc1oc2ncnc(N)c2c1C
 : -5.7%, nt
Cc1cc(=O)oc2c3c(cc(OCC(=O)N[C@@H](CC(C)C)C(=O)O)c12)OC(C)(C)CC3
 : 1.6%, -5.1%
COc1cc(NC(=O)c2nn(C)c3c2CS(=O)(=O)c2ccccc2-3)cc(OC)c1
 : -3.7%, -15.0%
Cc1ccc(NC(=O)NC(=O)COC(=O)c2ccc(O)cc2O)c(C)c1
 : -25.6%, i
Cc1ccc2scc(N3CCN(c4ccc(F)cc4)CC3)c(=O)c2c1
 : -16.7%, -14.7%
COc1cccc(C(C(=O)NC(C)(C)C)N(Cc2ccc(C)cc2)C(=O)CCC(=O)Nc2cc(C)on2)c1OC (stereo not given)
 : -12.0%, -11.8%
C=Cc1ccc(Cn2c(C)c(C(=O)NCc3ccc4c(c3)OCO4)sc2=O)cc1
 : 4.7%, i
CCOC(=O)C1=CCN(S(=O)(=O)c2ccc(Cl)cc2)C1c1cccc(C)c1 (stereo not given)
 : 3.9%, 17.6%
CCCSc1ncc(Cl)c(C(=O)N2CCN(c3ccc(OC)cc3)CC2)n1
 : -22.1%, -19.5%
O=C(Cc1ccc(Cl)cc1)Nc1ncc([N+](=O)[O-])s1
 : -18.4%, -18.4%
CC(C)C(C)NC(=O)COc1ccc(Sc2ccc(OCC(=O)NC(C)C(C)C)cc2)cc1 (stereo not given)
 : -11.1%, -26.3%
Cc1ccccc1CC(=O)Nc1ccc2c(C)cc(=O)oc2c1
 : -9.2%, i
CN1C(=O)c2cccc3c(S(=O)(=O)NCc4ccco4)ccc1c23
 : -5.5%, -2.6%
Cc1cc(C(=O)NCCCN2CCN(C3CCCCC3)CC2)n(-c2ccccc2)n1
 : -13.0%, -20.3%
COc1ccccc1CNC(=O)C1(C)CCN1Cc1ccc(OC(F)(F)F)cc1 (stereo not given)
 : -21.1%, ?
COc1cc(CNC(=O)c2cc(-c3ccc(OC)cc3C)n[nH]2)cc(OC)c1
 : -12.1%, -7.2%
CCOC(=O)[C@]12Cc3ccccc3[C@H]1N(CCC(=O)OC)C(=O)c1ccccc12
 : -12.7%, -17.2%
Clc1ccc2nc3ccccc3cc2c1
 : -0.8%, i
O=C(C1CC(=O)N(c2ccc3c(c2)OCCO3)C1)N1CCCC(C(F)(F)F)C1 (stereo not given)
 : -24.7%, i
COc1cc(-c2cc(-c3ccccc3)nc(SCC(=O)O)c2C#N)cc(OC)c1OC
 : -6.5%, -12.0%
Cc1cc(NC(=O)CN2C(=O)c3cccnc3Sc3ccccc32)ccc1Br
 : ?, -29.9%
CCCc1nnc(NC(=O)CCC(=O)NC2CCCc3ccccc32)s1 (stereo not given)
 : -21.9%, -13.7%
Cc1onc(-c2c(Cl)cccc2Cl)c1C(=O)NCc1ccco1
 : 3.3%, -17.7%
Cc1cc(O)cc(C)c1Cl
 : -12.2%&-15.1%, -14.8%
